Compound activity as filed in PubChem.
Vaccinia stage = blocks a specific stage of Vaccinia orthopoxvirus infection; Vaccinia-infected cells, mCherry/Venus stage reporter fluorescence; hits give low values; some inactives read as strong as hits; activity change (mCherry), % (test concentration not listed); 89,000 compounds, 0.01% hits;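 active = mCherry past -33% and 40 or more points under the early reporter, replicates agreeing; inconclusive = past -33% without that gap or agreement; tested in A549 cells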;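 note: scaled between vehicle wells and reference inhibitor wells; 23 nL library stock went into each well; one replicate is shown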
Vaccinia stage Venus = recorded beside Vaccinia stage, whose call it bears; activity change (Venus), %; measured here: Venus reporter, other viral stage;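 negative = less Venus signal; first of two replicates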
An asterisk follows results filed as active; ? = inconclusive; . = no result given; & = joins results of further samples.

SMILES	Vaccinia stage	Vaccinia stage Venus
C[C@@H]1CN([C@@H](C)CO)C(=O)Cc2cc(NC(=O)NC3CCCCC3)ccc2O[C@H]1CN(C)C(=O)Nc1ccc(C(F)(F)F)cc1	-2.5	2.0
COc1ccc(S(=O)(=O)Nc2ccc3c(c2)CC(=O)N([C@@H](C)CO)C[C@H](C)[C@H](CN(C)Cc2ccc(Cl)c(Cl)c2)O3)cc1	-25.7	-22.6
COc1ccc2c3c([nH]c2c1)[C@H](CO)N(C(=O)c1ccncc1)CC31CCN(C(=O)c2ccncc2)CC1	15.7	15.7
C[C@@H]1CCCCO[C@H](CN(C)C(=O)Nc2ccc(F)cc2)[C@@H](C)CN([C@H](C)CO)C(=O)c2cc(NS(=O)(=O)c3ccccc3)ccc2O1	-3.9	-6.3
Cc1noc(C)c1S(=O)(=O)Nc1ccc2c(c1)C(=O)N([C@@H](C)CO)C[C@@H](C)[C@H](CN(C)CC1CCCCC1)OCCCC[C@@H](C)O2	-15.0	-18.4
COc1ccc(-c2cnc3c(c2)C(=O)N([C@H](C)CO)C[C@H](C)[C@@H](CN(C)Cc2cccnc2)O3)cc1	16.0	-2.7
O=C(C[C@@H]1C=C[C@@H](NC(=O)Nc2ccccc2F)[C@@H](CO)O1)NCc1ccc(F)cc1	9.2	2.4
C[C@H]1CN([C@@H](C)CO)S(=O)(=O)c2ccc(C#CC(C)(C)O)cc2O[C@H]1CN(C)Cc1ccc(-c2ccccc2)cc1	?	.
C[C@@H]1CCCCO[C@@H](CN(C)S(=O)(=O)c2ccccc2)[C@H](C)CN([C@H](C)CO)C(=O)c2cc(N(C)C)ccc2O1	-27.6	-16.8
O=C(Nc1ccc2c(c1)[C@H]1C[C@@H](CC(=O)N3CCOCC3)O[C@@H](CO)[C@H]1O2)NC1CCCC1	14.5	14.5
C/C=C/c1ccc2c(c1)O[C@@H](CN(C)C(=O)Cc1ccccc1)[C@@H](C)CN([C@@H](C)CO)S2(=O)=O	-5.3	-10.3
O=C(C[C@H]1CC[C@H]2[C@@H](COC[C@@H](O)CN2C(=O)c2cccnc2)O1)NCc1ccccc1	-1.9	-4.1
CO[C@@H]1CN(C)C(=O)c2cc(NC(=O)NC(C)C)ccc2OC[C@H](C)N(Cc2ccc(-c3ccccn3)cc2)C[C@H]1C	?	.
COc1ccccc1-c1cnc2c(c1)C(=O)N([C@@H](C)CO)C[C@@H](C)[C@H](CN(C)Cc1cccnc1)O2	-18.2	-10.5
CN1C(=O)c2cc(NC(=O)c3cccc(F)c3)ccc2OC[C@@H]2O[C@@H](CC(=O)NCc3ccccc3Cl)CC[C@@H]21	-22.6	-19.9
O=C(C[C@@H]1CC[C@H]2[C@@H](COC[C@H](O)CN2Cc2ccc(F)cc2)O1)N1CCc2ccccc2C1	-6.9	-6.6
Cc1noc(C)c1NC(=O)Nc1ccc2c(c1)C(=O)N([C@H](C)CO)C[C@H](C)[C@H](CN(C)CC1CC1)OCCCC[C@H](C)O2	8.9	4.6
CC(C)C#Cc1ccc([C@@H]2[C@@H](CO)N3C(=O)CN(C(=O)Cc4ccccc4)C[C@@H]23)cc1	-25.8	-17.6
COc1ccc(-c2cnc3c(c2)C(=O)N([C@@H](C)CO)C[C@H](C)[C@H](CN(C)C(=O)NC2CCCC2)O3)cc1	15.3	0.5
CN1c2ccc(-c3cccc(C#N)c3)cc2[C@@H]2[C@@H](CCN2C(=O)Nc2cc(F)ccc2F)[C@@H]1CO	?	.
COC(=O)[C@@H]1[C@@H](CO)[C@@H]2Cn3c(ccc(-c4ccccc4OC)c3=O)[C@@H]2N1CC1CCCC1	-8.3	3.6
O=C(NCC[C@H]1CC[C@@H](NC(=O)C2CC2)[C@@H](CO)O1)c1cc(Cl)cc(Cl)c1	-9.5	-11.3
C[C@@H]1CCCCO[C@H](CN(C)C(=O)c2ccncc2)[C@H](C)CN([C@H](C)CO)C(=O)c2cc(NC(=O)C3CCCCC3)ccc2O1	8.7	11.7
CCC(=O)N[C@H]1CC[C@@H](CC(=O)NCc2cc(F)cc(F)c2)O[C@@H]1CO	10.4	15.8
C[C@H](CO)N1C[C@H](C)[C@H](CN(C)C(=O)Nc2cccc3ccccc23)OCCCC[C@H](C)Oc2ccc(NC(=O)Nc3ccc4c(c3)OCO4)cc2C1=O	17.9	11.8
O=C(C[C@@H]1C=C[C@@H](NC(=O)CN2CCOCC2)[C@@H](CO)O1)NCc1cccc(F)c1	1.9	0.4
C[C@@H]1CN([C@H](C)CO)C(=O)Cc2cc(NC(=O)NC3CCCCC3)ccc2O[C@@H]1CN(C)Cc1ccc(C(F)(F)F)cc1	-23.9	-25.0
O=C([C@@H]1[C@@H](CO)[C@@H]2Cn3c(ccc(-c4ccccc4)c3=O)[C@H]1N2Cc1cccnc1)N1CCOCC1	-1.8	4.2
C[C@@H]1CN([C@H](C)CO)C(=O)c2cc(NS(=O)(=O)c3cn(C)cn3)ccc2O[C@@H]1CN(C)C(=O)Nc1ccc2c(c1)OCO2	14.1	10.4
O=C(NCC(F)(F)F)[C@H]1[C@H](CO)[C@H]2Cn3c(cccc3=O)[C@@H]1N2CC1CC1	15.4	13.9

Pulled by structure from the entries so far:
SMILES	Vaccinia stage	Vaccinia stage Venus
O=C(NCC(F)(F)F)[C@H]1[C@H](CO)[C@H]2Cn3c(cccc3=O)[C@@H]1N2CC1CC1	15.4	13.9
COc1ccc(-c2cnc3c(c2)C(=O)N([C@@H](C)CO)C[C@H](C)[C@H](CN(C)C(=O)NC2CCCC2)O3)cc1	15.3	0.5
CC(C)C#Cc1ccc([C@@H]2[C@@H](CO)N3C(=O)CN(C(=O)Cc4ccccc4)C[C@@H]23)cc1	-25.8	-17.6
COC(=O)[C@@H]1[C@@H](CO)[C@@H]2Cn3c(ccc(-c4ccccc4OC)c3=O)[C@@H]2N1CC1CCCC1	-8.3	3.6
C[C@@H]1CCCCO[C@@H](CN(C)S(=O)(=O)c2ccccc2)[C@H](C)CN([C@H](C)CO)C(=O)c2cc(N(C)C)ccc2O1	-27.6	-16.8
O=C([C@@H]1[C@@H](CO)[C@@H]2Cn3c(ccc(-c4ccccc4)c3=O)[C@H]1N2Cc1cccnc1)N1CCOCC1	-1.8	4.2
O=C(NCC[C@H]1CC[C@@H](NC(=O)C2CC2)[C@@H](CO)O1)c1cc(Cl)cc(Cl)c1	-9.5	-11.3

Continuation.
SMILES	Vaccinia stage	Vaccinia stage Venus
O=C(NCC[C@H]1CC[C@@H](NC(=O)Nc2cc(F)ccc2F)[C@@H](CO)O1)Nc1ccc(F)cc1	-3.5	-7.5
CC(C)NC(=O)Nc1ccc2c(c1)C(=O)N([C@@H](C)CO)C[C@H](C)[C@@H](CN(C)C(=O)CCC(F)(F)F)OCCCC[C@H](C)O2	1.7	7.9
Cc1ccc(S(=O)(=O)Nc2ccc3c(c2)C(=O)N([C@@H](C)CO)C[C@H](C)[C@H](CN(C)C(=O)Nc2c(C)noc2C)OCCCC[C@@H](C)O3)cc1	0.0	1.1
O=C(c1cccc(F)c1)N1CC(=O)N2[C@H](C1)[C@H](c1ccc(-c3cccnc3)cc1)[C@@H]2CO	16.7	12.1
CC(C)NC(=O)Nc1ccc2c(c1)CC(=O)N([C@@H](C)CO)C[C@@H](C)[C@@H](CN(C)S(=O)(=O)c1cn(C)cn1)O2	19.1	21.7
O=C(Nc1cc(Cl)cc(Cl)c1)N[C@H]1CC[C@@H](CCNS(=O)(=O)c2cccc(F)c2)O[C@@H]1CO	?	.
C[C@@H]1CN([C@H](C)CO)C(=O)c2cc(-c3cccc(F)c3)cnc2O[C@H]1CN(C)C(=O)C1CCCCC1	-19.3	-2.4
O=C(Nc1ccc(Cl)c(Cl)c1)N[C@@H]1CC[C@@H](CCn2cc(C3CCCCC3)nn2)O[C@H]1CO	-21.1	-10.9
C[C@@H]1CN([C@H](C)CO)C(=O)c2cccc(NC(=O)Nc3ccc4c(c3)OCO4)c2O[C@@H]1CN(C)CC1CCCCC1	-13.6	-11.6
CCCNC(=O)N(C)C[C@H]1Oc2ncc(C#CC3CC3)cc2C(=O)N([C@H](C)CO)C[C@@H]1C	14.5	0.0
COc1ccc(CN(C)C[C@@H]2OCCCC[C@@H](C)Oc3ccc(N(C)C)cc3C(=O)N([C@@H](C)CO)C[C@H]2C)cc1	-9.7	-5.8
O=C(NC1CCCC1)N1CCCCN2[C@H](CO)[C@@H](c3ccc(-c4cccnc4)cc3)[C@H]2C1	-4.3	-1.4
O=C(NCCc1ccncc1)[C@H]1[C@H](CO)[C@H]2Cn3c(ccc(-c4ccncc4)c3=O)[C@H]2N1C(=O)C1CC1	2.2	2.6
C[C@H]1CCCCO[C@@H](CN(C)S(=O)(=O)c2cn(C)cn2)[C@@H](C)CN([C@@H](C)CO)C(=O)c2cc(NC(=O)NC3CCCCC3)ccc2O1	35.7	8.3
C[C@H](O)C#Cc1ccc([C@H]2[C@@H](CO)N3CCCCN(C(=O)c4ccncc4)C[C@@H]23)cc1	17.6	23.8
C[C@@H]1CCCCO[C@H](CN(C)S(=O)(=O)c2ccc(Cl)cc2)[C@@H](C)CN([C@H](C)CO)C(=O)c2cc(NC(=O)Nc3ccccc3)ccc2O1	26.3	16.8
O=C(C[C@@H]1C=C[C@H](NC(=O)C2CC2)[C@@H](CO)O1)Nc1ccccc1	2.9	-0.9
O=C(c1ccccn1)N1CC(=O)N2[C@@H](CO)[C@H](c3ccc(-c4cccc(F)c4)cc3)[C@@H]2C1	34.0	8.0
O=C(NC1CCCC1)[C@H]1[C@H](CO)[C@H]2Cn3c(ccc(-c4cccnc4)c3=O)[C@H]2N1CC1CC1	7.3	6.0
COc1ccc2c3c(n(C)c2c1)[C@@H](CO)N(C(=O)Nc1ccc(F)cc1)CC31CCN(C(=O)CN2CCOCC2)CC1	14.0	3.8
COc1ccc(NC(=O)N(C)C[C@@H]2OCCCC[C@@H](C)Oc3ccc(NC(=O)c4ccccc4)cc3C(=O)N([C@@H](C)CO)C[C@@H]2C)cc1	6.2	4.4
COc1ccc(NC(=O)Nc2ccc3c(c2)C(=O)N([C@H](C)CO)C[C@@H](C)[C@H](CN(C)Cc2ccc(C(=O)O)cc2)O3)cc1	0.4	7.7
CO[C@H]1CN(C)C(=O)c2ccc(NC(=O)C3CC3)cc2OC[C@H](C)N(C(=O)c2cnccn2)C[C@@H]1C	14.0	6.5
CO[C@@H]1CN(C)C(=O)c2cc(NC(=O)Nc3cccc(F)c3)ccc2OC[C@H](C)N(C)C[C@@H]1C	-8.0	-2.5
C[C@@H]1CCCCO[C@@H](CN(C)Cc2ccncc2)[C@@H](C)CN([C@H](C)CO)C(=O)c2cc(NS(=O)(=O)c3cccs3)ccc2O1	14.0	12.0
CO[C@H]1CN(C)C(=O)c2cc(NC(=O)Nc3c(C)noc3C)ccc2OC[C@H](C)NC[C@H]1C	24.9	15.3
COCC#Cc1cnc2c(c1)C(=O)N([C@H](C)CO)C[C@H](C)[C@@H](CN(C)C(=O)C1CCOCC1)O2	12.4	0.0
C[C@@H]1CN([C@@H](C)CO)C(=O)c2cc(NC(=O)CCCCCC(=O)Nc3ccccc3N)ccc2O[C@H]1CN(C)C	28.2	27.7
Cc1noc(C)c1NC(=O)Nc1ccc2c(c1)CC(=O)N([C@@H](C)CO)C[C@H](C)[C@@H](CN(C)S(=O)(=O)c1c(C)noc1C)O2	14.4	1.5
CCCC#Cc1ccc2c(c1)O[C@H](CN(C)C(=O)c1ccncc1)[C@@H](C)CN([C@@H](C)CO)S2(=O)=O	-9.1	-11.8
COc1ccc2c3c(n(C)c2c1)[C@H](CO)NCC31CCN(Cc2ccncc2)CC1	-9.6	-19.1
CC(C)NC(=O)N(C)C[C@@H]1OCc2ccccc2-c2ccccc2C(=O)N([C@@H](C)CO)C[C@@H]1C	30.4	11.0
CNC[C@H]1Oc2cc(Br)ccc2S(=O)(=O)N([C@@H](C)CO)C[C@@H]1C	4.6&-7.2	5.6&-6.1
CC(C)NC(=O)N[C@H]1CC[C@H](CCNS(=O)(=O)c2ccc(Cl)cc2)O[C@H]1CO	7.2	5.4
COc1ccc(S(=O)(=O)N(C)C[C@H]2OCCCC[C@H](C)Oc3ccc(NC(=O)Nc4ccc(C(F)(F)F)cc4)cc3C(=O)N([C@@H](C)CO)C[C@H]2C)cc1	-7.8	5.0
C[C@@H]1CN([C@@H](C)CO)C(=O)c2cc(-c3cncnc3)cnc2O[C@@H]1CN(C)C(=O)Cc1cccnc1	24.0	12.8
O=C(C[C@H]1CC[C@@H]2[C@H](COC[C@H](O)CN2Cc2cccc(-c3ccncc3)c2)O1)N1CCN(c2ccccc2)CC1	?	.
CN1CCN(C(=O)C[C@H]2CC[C@H]3[C@@H](COC[C@@H](O)CN3S(=O)(=O)c3cccc(Cl)c3)O2)CC1	21.6	12.9
CCCNC(=O)N1C[C@@H](C)[C@@H](OC)CN(C)C(=O)c2ccc(NC(=O)CC)cc2OC[C@H]1C	13.9	13.7
CCN1[C@@H]2c3ccc(-c4ccc(OC)cc4)c(=O)n3C[C@@H]2[C@@H](CO)[C@@H]1C(=O)NCCN1CCCCC1	19.5	11.8
C[C@@H]1CN([C@H](C)CO)C(=O)Cc2cc(NC(=O)C3CC3)ccc2O[C@@H]1CN(C)C(=O)Nc1ccc2c(c1)OCO2	3.2	0.4
CO[C@@H]1CN(C)C(=O)c2ccc(NC(=O)NC(C)C)cc2OC[C@H](C)N(CCC(F)(F)F)C[C@@H]1C	0.8	2.4
Cc1ccc(S(=O)(=O)N(C)C[C@H]2OCCCC[C@H](C)Oc3ccc(NC(=O)NC4CCCCC4)cc3C(=O)N([C@@H](C)CO)C[C@H]2C)cc1	6.2	7.4

Not all compounds are listed; rates above refer to the full screens.
